Compound activity from PubChem BioAssay.
Bead autofluor: counter-screen for toxin protease inhibitors: compound fluorescence. AID 624483. compound autofluorescence counterscreen, microsphere flow cytometry; stronger effect = higher value. 360,000 compounds, 3.1% hits. fluorescence intensity (test concentration not listed);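 active = at least 3 SD above the mean of all compounds, about 16000 in these data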;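 also: 100 nL of 1 mM stock went into each well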
RN4220 kill: S. aureus RN4220 growth inhibition | AID 1259311 | inhibition, % (test concentration not listed) | OD600, 16 h | 330,000 compounds, 0.33% hits;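 active = z-score of -3 or lower and OD600 up to 0.18 on both plates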;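 also: plate controls were untreated cells for no effect and reference antibiotic for full effect; stock transfer was 100 nL into about 80 µL; one replicate is shown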
PrP 5UTR inh: inhibition of PrP 5' UTR reporter expression | cell-based PrP 5' UTR mRNA reporter, plate reader | inhibition, % (concentration not given with the values) | 340,000 compounds, 0.35% hits | AID 488862;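 active = every replicate at 50% or more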;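 also: 0 = median of the neutral control wells; tested in H4 reporter cells; numbers are from one replicate; inactives centre near -14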
ugtP null kill: kills S. aureus RN4220 lacking UgtP | S. aureus RN4220 ugtP deletion, OD600 growth, 16 h; some inactives read as strong as hits | growth inhibition, % (test concentration not listed) | 330,000 compounds, 0.54% hits;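 active = z-score under -3 and OD600 up to 0.15 on both plates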;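 also: plate controls were untreated wells for no effect and antibiotic for full effect; wells of about 80 µL received 100 nL stock; the first replicate is given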
Mtb hypoxia rep: inhibitors of hypoxia-regulated fluorescent reporter in Mycobacterium tuberculosis. M. tuberculosis hypoxia-regulated fluorescent reporter, fluorescence. fluorescence inhibition, % (no concentration beside the values). 300,000 compounds, 0.1% hits. AID 1159583;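 active = 35 to 45% if threefold the growth effect, above 45% if 1.5-fold the growth effect; inactive = the rest, general growth blockers included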;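 also: wells of about 50 µL received 100 nL stock; 0% = vehicle wells and 100% = reference inhibitor wells; whole bacteria with a GFP reporter of the hypoxia response; strong numbers were not always called active; many hits fall short of the cut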
BJeLR lethal: BJeLR cell viability loss. BJeLR (HRASV12) viability, CellTiter-Glo ATP luminescence, 48 h; reference of the scale not given here. AID 1554. inhibition, % (test concentration not listed). 300,000 compounds, 0.17% hits;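 active = replicate mean above 50%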;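 also: 50 nL library stock added to about 25 µL; numbers are from one replicate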
Mtb hypoxia rep growth: also measured in Mtb hypoxia rep; calls as there; growth inhibition, %; measured here: M. tuberculosis growth (absorbance);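 0% = vehicle and 100% = reference antibiotic; read after six days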
Numbers without * were called inactive; . = no result given; & = joins results of further samples.

The first three records, to show the layout:
SMILES	Bead autofluor	RN4220 kill	PrP 5UTR inh	ugtP null kill	Mtb hypoxia rep	Mtb hypoxia rep growth	BJeLR lethal
COc1ccc(C=NN=C2SC(CC(=O)O)C(=O)N2c2ccccc2)cc1 (stereo not drawn)	.	1.2	.	-0.3	4.9	0.9	.
COc1cc(NC(=O)c2sc3ncn(CC(=O)N4CCCCC4)c(=O)c3c2C)cc(OC)c1OC	5289	1.3	5.5	-0.4	-4.4	7.6	1.8
C=CCNc1nc2ccccc2c(=O)[nH]1	2004	8.6	-18.2	13.6	-2.1	-1.4	5.8

All compounds of this part, from the first entry:
SMILES	Bead autofluor	RN4220 kill	PrP 5UTR inh	ugtP null kill	Mtb hypoxia rep	Mtb hypoxia rep growth	BJeLR lethal
COc1ccc(C=NN=C2SC(CC(=O)O)C(=O)N2c2ccccc2)cc1 (stereo not drawn)	.	1.2	.	-0.3	4.9	0.9	.
COc1cc(NC(=O)c2sc3ncn(CC(=O)N4CCCCC4)c(=O)c3c2C)cc(OC)c1OC	5289	1.3	5.5	-0.4	-4.4	7.6	1.8
C=CCNc1nc2ccccc2c(=O)[nH]1	2004	8.6	-18.2	13.6	-2.1	-1.4	5.8
CCOC(=O)c1c(CNc2ccncc2)n(C)c2cc(Br)c(O)cc12	3255	3.9	-24.8	3.0	10.0	11.6	-0.1
CCN1CCN(c2ccc(NC(=O)c3ccc(F)cc3)cc2Cl)CC1	3780	3.8	-20.3	4.3	6.0	4.2	0.6
COc1ccc(CNC(=O)C[C@H]2C(=O)N(C3CCCCC3)C[C@@H]2Cc2ccccc2)cc1	3585	.	-9.8	.	.	.	0.8
CCc1ccc(OCC2Cn3c(nc4c3c(=O)[nH]c(=O)n4C)O2)cc1 (stereo not drawn)	4085	0.1	-10.6	7.7	8.1	12.4	3.1
O=C(/C=C/c1cccs1)NCc1ccc2c(c1)OCO2	4870	2.8	-16.4	11.4	.	.	-0.7
CC(Sc1nc(-c2ccc(F)cc2)cs1)C(=O)Nc1ccc(Cl)cn1 (stereo not drawn)	2616	-5.8	2.7	-13.7	7.0	-3.3	0.6
CCC(C)c1ccc(NC(=S)N2CCN(S(C)(=O)=O)CC2)cc1 (stereo not drawn)	5998	2.8	-0.2	0.3	4.0	6.3	-0.8
CCNC(=O)CCSc1nc(C)cc(C)n1	4327	1.9	-2.9	3.1	6.4	-5.9	-4.9
Cc1noc(C)c1COC(=O)CCC(=O)c1ccc(F)cc1	4720	1.1	-11.4	4.1	3.2	4.7	3.1
C/C(=N\NC(=O)C(=O)Nc1cccc(Cl)c1)c1ccncc1	8844	.	-6.8	.	.	.	-9.1
O=c1c(S(=O)(=O)c2ccc(Cl)cc2)cn(Cc2ccccc2)c2ccc(F)cc12	3119	-5.2	-17.8	8.3	-3.2	1.9	-10.4
COc1ccc(C)cc1S(=O)(=O)Nc1cccc(SC)c1	2837	-7.9	-10.0	-5.0	10.1	5.2	0.5
Clc1cccc(OCCN2CCN(CCOc3cccc(Cl)c3)CC2)c1	2267	.	-33.2	.	.	.	11.4
Cc1ccc(NC(=O)c2cc(S(=O)(=O)NCCc3ccccc3)ccc2F)cc1Cl	1958	5.4	-60.2	-0.3	8.4	8.8	4.6
CCC(C)SCC(=O)Nc1ccc(S(=O)(=O)N2CCOCC2)cc1OC (stereo not drawn)	4198	1.5	-10.3	8.4	4.2	2.1	-3.4
CCOC(=O)C1=C(C)NC2=C(C(=O)CCC2)C1c1cccs1 (stereo not drawn)	2508	-1.6	1.1	0.5	.	.	-6.0
COc1ccc(N(CC(=O)NC(C)C)S(=O)(=O)c2ccc(NC(C)=O)cc2)cc1	7559	20.2	-8.5	11.5	7.4	0.6	-6.8
COc1cc(/C=N/NC(=O)c2ccncc2)ccc1OC(=O)c1cccc(Br)c1	3203	.	-10.2	.	.	.	-2.8
COc1ccc(NC(=O)/C(Cl)=C(/Cl)S(=O)Cc2ccccc2Cl)cn1 (stereo not drawn)	.	1.8	40.4	15.4	.	.	.
Cc1nc2sccn2c(=O)c1Cl	10822	4.5	-18.9	2.1	7.3	3.2	-9.7
COc1ccc(NS(=O)(=O)c2ccc(O)c(NS(=O)(=O)c3ccc(NC(C)=O)cc3)c2)cc1	3440	5.6	-24.1	6.3	1.3	-4.9	.
COc1ccc(NC(=O)COc2cccc(-n3cnnn3)c2)cc1Cl	.	-0.9	-0.4	2.0	-0.7	4.4	-5.4
CC(C)CN(CCC(=O)O)CC(C)C	10448	3.2	-25.3	3.1	17.1	9.7	3.2
O=C(COc1ccc(Br)cc1)OCCN1CCCCC1	3901	-0.6	-18.9	13.1	1.7	4.7	4.9
CC(=O)Nc1ccc(NC(=O)C(C)OC(=O)c2oc3ccccc3c2C)cc1 (stereo not drawn)	5473	3.8	-2.8	6.2	6.5	5.4	12.2
S=c1[nH]ncn2c1cc1oc3ccccc3c12	3881	-1.1	-21.9	7.4	-3.4	2.4	0.7
CCS(=O)(=O)NCC(c1cccnc1)N1CCN(c2ccc(F)cc2)CC1 (stereo not drawn)	3198	-6.2	-15.8	-6.3	4.0	7.1	10.3

Structural class: the entries above with a COOH group
SMILES	Bead autofluor	RN4220 kill	PrP 5UTR inh	ugtP null kill	Mtb hypoxia rep	Mtb hypoxia rep growth	BJeLR lethal
COc1ccc(C=NN=C2SC(CC(=O)O)C(=O)N2c2ccccc2)cc1 (stereo not drawn)	.	1.2	.	-0.3	4.9	0.9	.
CC(C)CN(CCC(=O)O)CC(C)C	10448	3.2	-25.3	3.1	17.1	9.7	3.2

New compounds follow:
SMILES	Bead autofluor	RN4220 kill	PrP 5UTR inh	ugtP null kill	Mtb hypoxia rep	Mtb hypoxia rep growth	BJeLR lethal
Cc1cc(C(=O)N2CCOCC2)n(-c2ccccc2)n1	4452	2.2	-0.3	10.1	0.9	5.2	-2.0
O=C(Nc1ccc2[nH]c(=O)[nH]c2c1)c1ccc([N+](=O)[O-])o1	5564	7.7	-7.5	11.9	.	.	.
Cc1nn(CC(=O)Nc2nnc(C(C)C)s2)c(=O)c2ccccc12	2447	0.8	-15.4	5.1	-3.7	7.4	6.6
O=C(COC(=O)c1ccccc1[N+](=O)[O-])Nc1nnc(-c2ccccc2)o1	.	7.2	-15.0	1.9	4.5	-0.5	-1.7
CCc1ccc(CN(C)C(=O)C2CCC(=O)N(CCCN3CCCC3=O)C2)cc1 (stereo not drawn)	3863	1.2	-1.8	4.9	8.3	3.4	-6.4
C/C(=N\NC(=O)C(C)Nc1cccc(Cl)c1)c1ccc([N+](=O)[O-])cc1 (stereo not drawn)	2559	.	-10.0	.	.	.	-16.1
O=C(CSc1nnc(Cc2ccccc2)o1)N1CCCC1	4165	2.8	0.1	-4.4	3.1	-1.2	-4.1
CS(=O)(=O)N(CC(=O)NN=Cc1ccccc1C(=O)O)c1cccc(Cl)c1Cl	.	10.1	.	2.5	11.0	-2.6	.
COc1cc(/C=N/n2cnnc2)ccc1OCc1ccc(C)cc1	2568	.	-38.8	.	.	.	0.6
CC(C)NC(=O)c1ccc2c(c1)N(CC(=O)Nc1ccccc1F)C(=O)C(C)(C)O2	3850	1.2	-26.4	7.4	1.9	0.4	-3.6
COc1ccc(C(=O)NC2CCN(CC(=O)NCc3ccccc3)CC2)cc1	3549	2.1	-23.7	15.4	9.9	2.9	-10.0
COc1ccc(/C=C/C(=O)Nc2cccc(S(=O)(=O)N3CCOCC3)c2)cc1OC	6156	-3.3	-21.5	-8.5	-12.8	2.9	.
S=C(NCc1ccco1)Nc1ccc(Cl)cc1Cl	2122	2.9	-38.9	-0.3	9.9	-2.7	4.0
Nc1ccn(Cc2ccccc2F)n1	3873	3.3	-20.0	9.5	2.8	3.3	-1.9
O=[N+]([O-])c1ccc(Cl)c(S(=O)(=O)Nc2ccc3cn[nH]c3c2)c1	3802	-2.2	-10.1	-1.1	2.0	5.2	.
O=C(Nc1ccccn1)C(=O)Nc1ccccn1	4444	3.7	-62.8	6.5	9.8	14.0	-5.1
O=c1[nH]cc(-c2ccc(Br)cc2)n1Cc1ccccc1	3498	-0.8	-18.3	9.9	11.5	2.1	-0.2
O=C(Nn1c(Cc2ccccc2)nc2ccccc2c1=O)c1c(O)c2cccc3c2n(c1=O)CCC3	4351	-0.8	-23.3	-3.4	-7.0	5.5	-4.0
NC(=O)CN(N=Nc1cccc([N+](=O)[O-])c1)c1cccc([N+](=O)[O-])c1	1955	7.9	-19.1	7.8	-5.1	6.7	1.2
O=C(NCCC1CCCCN1S(=O)(=O)c1ccccc1)C(=O)NCc1cccnc1 (stereo not drawn)	5714	4.6	-1.6	6.0	8.4	3.8	4.9
CCOc1ccc(Nc2ncnc3c2cnn3-c2ccccc2)cc1	4229	0.1	-22.6	7.7	5.1	5.7	1.4
COc1ccc(CNc2ccc3c(c2)CCC3)cc1Br	4605	-1.8	-13.7	22.0	12.9	17.9	-4.3
CC1CN(Cc2ccc(Cl)cc2Cl)CC(C)O1 (stereo not drawn)	3433	-11.2	-10.2	-3.6	15.4	6.6	-6.5
CC(C)Nc1nc(Cl)nc(NNC(=O)C(C)Oc2ccccc2)n1 (stereo not drawn)	8491	-1.1	-29.4	-2.9	5.5	3.9	-9.1
CSc1ccc(-c2nnn(Cc3ccc(C)cc3)n2)cc1	2431	3.3	-64.6	7.7	7.8	3.5	-3.9
CCOC(=O)C1C2COc3ccc(Br)cc3C2N2C(=O)N(c3cccc(Cl)c3)C(=O)[C@]12C (stereo partly drawn)	.	2.1&-0.3	.	7.6&-29.6	10.7&4.2	1.2&4.0	.
CCSc1nnc(NC(=O)CSc2sc3c(O)cc(=O)[nH]c3c2C#N)s1	5780	4.9	-16.5	6.6	7.8	3.6	-1.3
CCC1(CC)Nc2ccccc2C(=O)N1c1ccc(NC(C)=O)cc1	2537	-5.1	-26.0	-0.3	10.9	-1.4	-3.7
O=C(NN1CCOCC1)c1cnn2c(C(F)F)cc(-c3ccccc3)nc12	4648	2.6	-17.5	4.9	-9.8	-2.0	2.5
Cc1ccc(NC(=O)c2cc(C)on2)cc1	20978*	3.2	-72.4	10.4	-0.2	-1.1	5.6
CC(=NNC(=O)c1ccc2nc[nH]c2c1)c1ccc([N+](=O)[O-])cc1	.	-5.2	.	-3.1	-9.4	2.5	.
CCOCCCN(C(=O)CCC(=O)Nc1cc(C)on1)C(C(=O)NC(C)(C)C)c1ccccc1Cl (stereo not drawn)	3322	0.4	-11.5	13.5	10.4	5.8	2.9
CC1(C(=O)NC2CCCC2)CCC(=O)N1Cc1ccccc1Cl (stereo not drawn)	4269	1.7	-5.1	5.6	7.8	6.1	-4.5
CCCc1cc(C(N)=O)c(NC(=O)C2CCCO2)s1 (stereo not drawn)	10021	6.3	-9.8	-1.5	16.2	5.1	7.9
CC(C)Cn1c(=O)[nH]c2ccccc21	3234	6.5	-9.5	0.2	-0.8	-1.4	7.9
O=C(O)CCCCCN1C(=O)C(O)=C(C(=O)/C=C/c2ccccc2)C1c1cccc([N+](=O)[O-])c1 (stereo not drawn)	2698	.	-20.7	.	.	.	4.6
CS(=O)(=O)c1ccc(Cl)c(NC(=O)c2ccc3ccccc3c2)c1	9741	.	-16.0	.	.	.	-12.9
O=C(O)c1cccc(N=C2NC(=O)C(CO)(CO)S2)c1	3479	3.7	-17.5	10.4	8.1	8.0	7.9
Cc1ccc(C(=O)N/N=C\c2cc3c(cc2Br)OCO3)cn1	3798	.	-23.1	.	.	.	1.1
c1csc(-c2nn3c(C4CCCCC4)nnc3s2)c1	4364	4.8	-35.4	-2.8	21.0	17.3	.
C=CCN1CCN(C(=O)c2ccc(-c3ccccc3)cc2)CC1	3696	4.0	-7.4	9.0	7.4	5.5	1.8
Cc1cc(C)c(C)c(S(=O)(=O)Nc2cccnc2)c1C	6334	5.1	-18.8	1.5	5.9	-3.5	-10.5
O=C1C(Nc2ccc(O)cc2)=CC(=NS(=O)(=O)c2cccs2)c2ccccc21	.	41.4	.	20.8	1.7	7.9	.
CCOP(=S)(OCC)C(O)CCCCCn1c(=O)c(F)cn(C2CCCO2)c1=O (stereo not drawn)	3254	2.9	-4.5	12.3	6.6	-1.1	-4.4
N#CC1=C(N)OC2=C(C(=O)CCC2)C12CCN(C(=O)OCc1ccccc1)CC2	9348	8.4	-12.1	4.8	-4.8	-0.3	-10.3
CC(=O)N1CCN(C2=Nc3cccc4cccc2c34)CC1	4242	7.2	-22.6	-5.0	2.6	8.4	7.5
